Source: PubChem BioAssay (several laboratories)
LEDGF integ inh = blocks HIV-1 LEDGF/p75-dependent DNA integration. 370,000 tested, 0.64% active. inhibition, % at 3.7 µM. AID 743269. TR-FRET IN-LEDGF/p75 DNA integration, Eu/Cy5;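 active means inhibition above the screen-wide mean plus 3 SD, cut at about 13% in these data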;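 further: signal is the Cy5 over europium emission ratio at 671 and 618 nm; 0% = plate median of compound wells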
UHRF1 MBD2 ctr = blocks human UHRF1 binding to methylated DNA; Q96T88; 370,000 tested, 0.75% active; UHRF1 binding to methylated oligo, TR-FRET; inhibition, % at 4.4 µM; AID 687016; in the data active means inhibition above about 21%;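 further: UHRF1 SRA domain binding a hemimethylated CpG hairpin DNA probe; 0% = median of test compound wells and 100% = reference inhibitor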
TCR-CD3 inh = inhibitors of human TCR-CD3 interaction. 360,000 tested, 0.37% active. inhibition, % at 9.4 µM. TAMRA-labeled TCR probe fluorescence, biochemical; in the data active means inhibition above about 19%;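 further: recombinant mutant TCR 2C K166C tagged with TAMRA read by polarization; 0% = receptor in buffer alone and 100% = receptor with positive control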
PG9 binder = PG9 antibody binding by small molecule; inhibition, % at 6.7 µM; 360,000 tested, 0.43% active; TR-FRET gp120-PG9 antibody binding; in the data active means inhibition above about 8.5%
PRMT1 inh = inhibitors of human PRMT1; AID 652257; Q99873; recombinant PRMT1, activity-based probe fluorescence polarization; 370,000 tested, 1.3% active; inhibition, % at 2.79 µM;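 active means inhibition above about 21% made by adding two undisclosed values, limit read from the data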
mABHD4 FP = ABHD4 (mouse) inhibition, primary FP screen; Q8VD66; purified mABHD4, FP-Rh probe fluorescence polarization; inhibition, % at 8.92 µM; 370,000 tested, 0.54% active;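 active means inhibition exceeding the mean over every tested compound plus 3 SD, cut at about 30% in these data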;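 further: 0% = plate median of compound wells and 100% = S159A mutant with DMSO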
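Test system: mABHD4 protein | Buffer or medium: HEPES pH 7.0 buffer, 150 mM NaCl, 0.01% Pluronic F-127 | Probe or stimulus: FP-Rh fluorescent activity-based probe, added after compound pre-incubation | Timing: Pre-incubation 45 min, probe exposure 60 min, at 25 °C | Technique: Fluorescence polarization, excitation 525 nm, emission 598 nm, BODIPY TMR filters | Repeats: Single well per compound (singlicate)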
MBD2 DNA inh = blocks human MBD2 binding to methylated DNA. TR-FRET, MBD2 binding to methylated oligonucleotide. 370,000 tested, 0.31% active. Q9UBB5. inhibition, % at 4.4 µM; in the data active means inhibition above about 13%
Target sequence (Q9UBB5 whole entry, looked up): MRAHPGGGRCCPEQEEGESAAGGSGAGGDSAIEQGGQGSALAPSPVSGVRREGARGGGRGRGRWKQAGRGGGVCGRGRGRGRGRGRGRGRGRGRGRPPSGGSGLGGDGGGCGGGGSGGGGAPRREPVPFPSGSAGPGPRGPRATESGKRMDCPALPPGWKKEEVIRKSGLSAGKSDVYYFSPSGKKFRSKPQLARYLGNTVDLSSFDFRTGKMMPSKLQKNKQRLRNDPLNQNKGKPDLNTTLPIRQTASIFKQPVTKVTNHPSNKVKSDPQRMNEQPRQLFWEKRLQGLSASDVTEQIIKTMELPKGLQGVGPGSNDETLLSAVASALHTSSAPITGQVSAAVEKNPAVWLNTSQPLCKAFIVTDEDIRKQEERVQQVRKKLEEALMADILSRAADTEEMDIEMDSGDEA
Rev-erbA mod = Rev-erb alpha (human) modulation. activity, % at 10 µM. AID 1259318. Rev-erbα–FITC-DNA binding, fluorescence polarization, 90 min. 370,000 tested, 0.79% active;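 active means activity above about 14%, limit read from the data; passing the limit was not always enough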;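 further: 0% = DMSO wells with 35 nM protein and 100% = DMSO wells with 750 nM protein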
Target sequence (P20393 whole entry, looked up): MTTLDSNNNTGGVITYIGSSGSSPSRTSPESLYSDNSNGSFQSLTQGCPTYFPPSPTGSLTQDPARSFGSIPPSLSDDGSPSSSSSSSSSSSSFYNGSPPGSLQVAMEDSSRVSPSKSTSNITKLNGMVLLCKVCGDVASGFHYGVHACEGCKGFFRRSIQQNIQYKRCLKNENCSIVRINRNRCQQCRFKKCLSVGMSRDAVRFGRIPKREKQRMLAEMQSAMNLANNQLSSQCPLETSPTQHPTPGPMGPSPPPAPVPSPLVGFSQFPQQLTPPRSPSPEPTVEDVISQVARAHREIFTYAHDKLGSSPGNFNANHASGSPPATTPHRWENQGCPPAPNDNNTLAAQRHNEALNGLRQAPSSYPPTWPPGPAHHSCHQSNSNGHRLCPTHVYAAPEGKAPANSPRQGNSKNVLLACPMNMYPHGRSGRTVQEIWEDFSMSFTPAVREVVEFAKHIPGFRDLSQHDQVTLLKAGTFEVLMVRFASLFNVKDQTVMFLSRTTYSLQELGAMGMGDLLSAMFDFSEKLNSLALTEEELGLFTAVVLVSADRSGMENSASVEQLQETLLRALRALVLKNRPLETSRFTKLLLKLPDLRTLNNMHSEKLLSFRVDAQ
rCAG binder = binds r(CAG) RNA repeats | r(CAG) RNA repeat, TO-PRO-1 dye displacement fluorescence | inhibition, % at 3 µM | 370,000 tested, 1.3% active | AID 651821;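 active means inhibition above the plate cutoff, the mean of all test compounds on that plate plus 3 SD, cut at about 35% in these data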;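 further: 0% = DMSO alone and 100% = 100 µM mitoxantrone as full dye displacement; higher means more dye released from RNA so lower well fluorescence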
* marks the source's active call; other numbers are inactive results.

1. Cc1cc(C)c(NC(=O)C2CCCCN2C)c(C)c1 (stereo not drawn)
2. CN1CCN(Cc2cc(Cl)c3cccnc3c2OC(=O)c2cccs2)CC1
3. CCOC(=O)c1cc(C(=O)OCC)c2cccc(C)n2c1=O
4. CCOC(=O)N1CCN(C(=O)c2ccc3c(c2)NC(=O)/C(=C\c2cccc(C)c2)S3)CC1
5. O=C(NN=Cc1ccc(OC(F)F)cc1)c1ccc(NS(=O)(=O)c2cccs2)cc1

Screen / compound no.	1	2	3	4	5
LEDGF integ inh	-1	-9	0	-1	-4
UHRF1 MBD2 ctr	16	-4	-4	0	0
TCR-CD3 inh	5	-2	6	5	-4
PG9 binder	-2.3	-0.8	-2.0	-1.3	-0.1
PRMT1 inh	-1	3	3	2	2
mABHD4 FP	-1	17	-7	10	-5
MBD2 DNA inh	4	-4	-1	-5	-4
Rev-erbA mod	-2	5	1	-2	2
rCAG binder	0	-4	-4	3	27

6. Cc1nc2nc[nH]n2c(=O)c1NC(=O)CCc1ccccc1
7. Cc1ccc(NC(=O)C2CC(Cl)=CCC2C(=O)O)c([N+](=O)[O-])c1 (stereo not drawn)
8. CCOC(=O)c1c(C)[nH]c(C)c1C(=O)COC(=O)c1ccc(OC)c(OC)c1
9. C=CCn1c(SCCOc2ccc(OC)cc2)nnc1C(NC(=O)c1ccc(OC)cc1)C(C)C (stereo not drawn)
10. Cc1nc(C)c(-c2csc(NCc3ccccc3)n2)s1

Screen / compound no.	6	7	8	9	10
LEDGF integ inh	-3	0	0	1	-4
UHRF1 MBD2 ctr	0	1	3	-1	0
TCR-CD3 inh	3	9	-5	0	5
PG9 binder	0.6	1.5	-1.1	-3.2	-0.5
PRMT1 inh	2	6	3	-1	-1
mABHD4 FP	-3	7	5	1	-1
MBD2 DNA inh	-4	-2	4	1	-2
Rev-erbA mod	2	-1	-1	1	4
rCAG binder	1	4	-3	-3	-4

11. Cc1ccccc1CN1CCNC(=O)C1CC(=O)NCCC1=CCCCC1 (stereo not drawn)
12. O=C(NC1CC(=O)N(c2ccc(F)cc2)C1)N1CCN(C(=O)c2ccco2)CC1 (stereo not drawn)
13. Cc1cccc(NC2SC(=O)N(CC(=O)O)C2=O)c1 (stereo not drawn)
14. Cc1cc2cc(C(c3nnnn3Cc3ccco3)N3CCc4ccccc43)c(=O)[nH]c2cc1C (stereo not drawn)
15. O=C1Nc2cc(C(=O)N3CCc4ccccc4C3)ccc2S/C1=C\c1ccccc1

Screen / compound no.	11	12	13	14	15
LEDGF integ inh	8	0	-1	1	-1
UHRF1 MBD2 ctr	-3	1	-2	-3	-4
TCR-CD3 inh	6	2	13	0	4
PG9 binder	-1.3	1.5	-1.1	0.3	0.7
PRMT1 inh	1	-2	1	19	-2
mABHD4 FP	6	3	8	-3	16
MBD2 DNA inh	-7	5	3	0	2
Rev-erbA mod	0	-2	2	-2	-7
rCAG binder	0	-5	1	18	6

16. NC(=O)c1cc(NC(=O)c2ccc(NS(=O)(=O)c3cccs3)cc2)cc(C(N)=O)c1
17. O=C(NCCc1c[nH]c2ccccc12)/C(=C\c1cccnc1)NC(=O)c1ccccc1Br
18. COc1ccc(OC)c(-c2csc(N3CCC(c4ccccc4)CC3)n2)c1
19. O=C1CC(c2ccc(F)c(Br)c2)C2=C(CCCC2=O)N1 (stereo not drawn)
20. COc1ccc(OC)c(CN(CCN2CCOCC2)S(=O)(=O)c2ccc(NC(C)=O)cc2)c1

Screen / compound no.	16	17	18	19	20
LEDGF integ inh	3	1	6	-3	-4
UHRF1 MBD2 ctr	5	-1	0	-1	3
TCR-CD3 inh	-1	4	3	-1	-9
PG9 binder	-0.2	-1.4	-0.4	-3.6	0.9
PRMT1 inh	-1	-6	-3	-1	2
mABHD4 FP	-5	0	6	-2	4
MBD2 DNA inh	-2	2	2	0	1
Rev-erbA mod	-2	-4	6	0	2
rCAG binder	4	0	0	-2	-6

21. S=c1[nH]nc(-c2cc(-c3ccsc3)n[nH]2)n1-c1cccc2ccccc12
22. COc1ccc(/C(O)=C2\C(=O)C(=O)N(c3cc(C)on3)C2c2ccc(OC)c(OC)c2)cc1OC (stereo not drawn)
23. O=C(O)c1ccc(Nc2cc(Cl)c3nonc3c2[N+](=O)[O-])cc1
24. COc1cc(OC)c(/C=N/n2c(C)nnc2C)c(OC)c1
25. Cn1c(NN)nc2sc3c(c2c1=O)CCC3

Screen / compound no.	21	22	23	24	25
LEDGF integ inh	-1	-2	2	4	3
UHRF1 MBD2 ctr	-1	-1	-2	5	-2
TCR-CD3 inh	-4	-3	-5	-3	-1
PG9 binder	1.6	1.8	1.9	-0.9	-1.8
PRMT1 inh	28*	-1	63*	-1	3
mABHD4 FP	17	3	7	0	21
MBD2 DNA inh	2	3	-11	0	3
Rev-erbA mod	-3	1	-6	-2	-25
rCAG binder	20	3	4	4	14

26. Cc1ccc(N2CC(NC(=O)N3CCN(C(=O)c4ccco4)CC3)CC2=O)cc1 (stereo not drawn)
27. CCOc1ccc(OCC)c(NC(=O)CSc2nnnn2CC)c1
28. CCn1c(SCC(=O)Nc2ccc(Br)cn2)nnc1C1CC1
29. COc1ccc(-c2nnc(SCC(=O)Nc3cc(C)on3)n2C)cc1OC
30. Nc1cc(=O)[nH]c(SCC(=O)NNC(=O)Cc2ccccc2)n1

Screen / compound no.	26	27	28	29	30
LEDGF integ inh	-1	-1	-2	-1	-4
UHRF1 MBD2 ctr	1	0	4	-1	-3
TCR-CD3 inh	3	2	0	10	4
PG9 binder	0.9	0.0	1.8	-0.5	0.1
PRMT1 inh	0	-2	0	0	3
mABHD4 FP	-4	-6	3	-2	-1
MBD2 DNA inh	-1	0	4	1	3
Rev-erbA mod	-1	0	-4	-4	-4
rCAG binder	-12	-7	-3	-4	0

31. COc1cccc2sc3ccc(NCc4ccc5c(c4)OCO5)cc3c(=O)c12
32. CC(=O)N1CCc2cc(C(=O)CN3CCN(c4ccccn4)CC3)ccc21
33. COC(=O)[C@H](C(C)C)N(Cc1ccccc1)S(=O)(=O)CCN1CCN(c2ccccc2)CC1
34. CNC(=S)NNc1ccccc1[N+](=O)[O-]
35. c1ccc(-c2nn3cnnc3c3ccccc23)cc1

Screen / compound no.	31	32	33	34	35
LEDGF integ inh	0	3	-14	-1	2
UHRF1 MBD2 ctr	-11	0	0	-1	-3
TCR-CD3 inh	-1	-2	-2	-2	-9
PG9 binder	-6.6	-3.6	-0.9	-0.8	2.7
PRMT1 inh	3	-6	-1	13	-1
mABHD4 FP	24	-1	-5	16	-3
MBD2 DNA inh	-9	2	-4	-3	4
Rev-erbA mod	-11	-3	-2	1	2
rCAG binder	8	5	0	1	2

36. CC(=O)c1cc(CN2CCC(n3nccc3NC(=O)c3ccccc3Cl)CC2)cs1
37. COc1ccc2oc(-c3ccccc3)c(C(=O)N(C)C)c2c1
38. Cc1ccc(/C=N/Nc2ccc(Cl)nn2)cc1
39. CC(C)C(C(=O)OCC(=O)c1ccc2c(c1)NC(=O)CO2)N1C(=O)c2ccccc2C1=O (stereo not drawn)
40. Cc1ncc(CO)c(/C=N/NC(=O)c2ccoc2C)c1O

Screen / compound no.	36	37	38	39	40
LEDGF integ inh	-5	1	2	4	-16
UHRF1 MBD2 ctr	-3	-2	1	-1	-1
TCR-CD3 inh	5	3	0	3	6
PG9 binder	-3.5	0.5	0.7	0.7	-1.4
PRMT1 inh	0	-4	4	0	10
mABHD4 FP	3	-2	5	2	-13
MBD2 DNA inh	0	1	1	-3	2
Rev-erbA mod	-4	-3	0	1	-3
rCAG binder	-6	5	-1	2	-3

41. O=C(Oc1ccc2c(=O)c(Oc3ccc4ccccc4c3)coc2c1)c1cncc(Br)c1
42. CCC(C)(C)n1nnnc1CN1CCN(c2nc3cc(OC)ccc3cc2C#N)CC1
43. COc1ccc(-c2nnc(-c3ccc(N)cc3)o2)cc1
44. COc1ccc(C(=O)N/N=C/c2c(CO)cnc(C)c2O)cc1
45. O=C(CN1CCN(Cc2ccccc2)CC1)N/N=C/C=C/c1ccccc1[N+](=O)[O-]

Screen / compound no.	41	42	43	44	45
LEDGF integ inh	1	2	0	-3	-1
UHRF1 MBD2 ctr	0	-1	-2	-3	-3
TCR-CD3 inh	0	-2	1	14	3
PG9 binder	-1.0	-1.8	1.2	-1.3	-1.3
PRMT1 inh	-3	-5	1	-1	-2
mABHD4 FP	-5	-12	4	0	-2
MBD2 DNA inh	-4	-5	0	-2	-1
Rev-erbA mod	2	56*	-10	1	-4
rCAG binder	1	-2	3	0	0

46. CCOC(=O)C(NC(=O)OC(C)C)(Nc1nccs1)C(F)(F)F (stereo not drawn)
47. CCOC(=O)c1c(C)[nH]c(C)c1C(=O)COC(=O)c1cccnc1Cl
48. CCOC(=O)CN1C(=O)SC(Nc2ccc(C)cc2)C1=O (stereo not drawn)
49. CCCCC1=CC2=CC(=O)C(C)(OC(=O)CC)C(=O)C2=CN1C(CO)CO (stereo not drawn)
50. CCOC(=O)c1c(C)[nH]c(C)c1C(=O)COC(=O)/C=C/c1ccc(Cl)cc1

Screen / compound no.	46	47	48	49	50
LEDGF integ inh	-2	5	-5	1	1
UHRF1 MBD2 ctr	1	7	-2	-4	3
TCR-CD3 inh	-1	-9	5	10	-9
PG9 binder	-0.1	-2.0	0.5	-1.3	-2.2
PRMT1 inh	2	-2	-5	3	-1
mABHD4 FP	2	0	-5	5	-9
MBD2 DNA inh	6	2	0	-4	3
Rev-erbA mod	-9	8	-1	1	1
rCAG binder	-3	1	1	-2	0

Pulled by compound from the list above, five records:
47. CCOC(=O)c1c(C)[nH]c(C)c1C(=O)COC(=O)c1cccnc1Cl
50. CCOC(=O)c1c(C)[nH]c(C)c1C(=O)COC(=O)/C=C/c1ccc(Cl)cc1
49. CCCCC1=CC2=CC(=O)C(C)(OC(=O)CC)C(=O)C2=CN1C(CO)CO (stereo not drawn)
48. CCOC(=O)CN1C(=O)SC(Nc2ccc(C)cc2)C1=O (stereo not drawn)
46. CCOC(=O)C(NC(=O)OC(C)C)(Nc1nccs1)C(F)(F)F (stereo not drawn)

Screen / compound no.	47	50	49	48	46
LEDGF integ inh	5	1	1	-5	-2
UHRF1 MBD2 ctr	7	3	-4	-2	1
TCR-CD3 inh	-9	-9	10	5	-1
PG9 binder	-2.0	-2.2	-1.3	0.5	-0.1
PRMT1 inh	-2	-1	3	-5	2
mABHD4 FP	0	-9	5	-5	2
MBD2 DNA inh	2	3	-4	0	6
Rev-erbA mod	8	1	1	-1	-9
rCAG binder	1	0	-2	1	-3

Other results.
51. CCOC(=O)c1sc(NC(=O)CCc2ccc(OC)cc2)nc1C
52. Nc1cc(OC(=O)c2cccs2)nn1S(=O)(=O)c1ccccc1
53. Cc1ccc(CC(C(=O)O)C(C)C(=O)Nc2ccc(F)cc2)cc1 (stereo not drawn)
54. COc1ccc(-c2cnnn2-c2ccc([N+](=O)[O-])cc2)cc1

Screen / compound no.	51	52	53	54
LEDGF integ inh	2	-2	-4	-3
UHRF1 MBD2 ctr	1	1	3	3
TCR-CD3 inh	5	11	-4	-3
PG9 binder	-1.4	-0.1	-1.4	-2.0
PRMT1 inh	-1	7	3	12
mABHD4 FP	-8	5	4	-6
MBD2 DNA inh	2	-4	1	6
Rev-erbA mod	27*	-1	-1	-1
rCAG binder	0	3	-2	-5

An excerpt (hit frequency here may not be typical).
